RN4220 kill: kills Staphylococcus aureus RN4220 | S. aureus RN4220 growth, OD600, 16 h | inhibition, % (concentration not given with the values) | 330,000 tested, 0.33% active;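 active means z-score of -3 or lower and OD600 up to 0.18 on both plates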;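 further: plate controls were untreated cells for no effect and reference antibiotic for full effect; stock transfer was 100 nL into about 80 µL; one replicate is shown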
PrP 5UTR inh: suppresses PrP 5' UTR mRNA reporter expression; AID 488862; 340,000 tested, 0.35% active; cell-based PrP 5' UTR mRNA reporter, plate reader; inhibition, % (concentration not given with the values);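 active means every replicate at 50% or more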;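 further: 0 = median of the neutral control wells; tested in H4 reporter cells; numbers are from one replicate; inactives centre near -14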
BJeLR viability: kills HRASV12-expressing BJeLR cells; BJeLR (HRASV12) viability, CellTiter-Glo ATP luminescence, 48 h; reference of the scale not given here; inhibition, % (no concentration beside the values); 300,000 tested, 0.17% active;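 active means replicate mean above 50%; inconclusive means above 50% but judged a plate artefact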;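 further: 50 nL library stock added to about 25 µL; numbers are from one replicate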
Autofluor counter: compound fluorescence in toxin protease inhibitor counterscreen. compound autofluorescence counterscreen, microsphere flow cytometry; stronger effect = higher value. fluorescence intensity (test concentration not listed). 360,000 tested, 3.1% active. AID 624483;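 active means at least 3 SD above the mean of all compounds, about 16000 in these data; inconclusive means too few beads counted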;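 further: 100 nL of 1 mM stock went into each well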
Mtb hypoxia inh: Mtb hypoxia fluorescent reporter inhibition; fluorescence inhibition, % (concentration not given with the values); M. tuberculosis hypoxia-regulated fluorescent reporter, fluorescence; 300,000 tested, 0.1% active; AID 1159583;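 active means 35 to 45% if threefold the growth effect, above 45% if 1.5-fold the growth effect; inactive means the rest, general growth blockers included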;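 further: wells of about 50 µL received 100 nL stock; 0% = vehicle wells and 100% = reference inhibitor wells; whole bacteria with a GFP reporter of the hypoxia response; strong numbers were not always called active; many hits fall short of the cut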
ugtP null kill: kills S. aureus RN4220 lacking UgtP; 330,000 tested, 0.54% active; S. aureus RN4220 ugtP deletion, OD600 growth, 16 h; some inactives read as strong as hits; growth inhibition, % (concentration not given with the values);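 active means z-score under -3 and OD600 up to 0.15 on both plates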;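 further: plate controls were untreated wells for no effect and antibiotic for full effect; wells of about 80 µL received 100 nL stock; the first replicate is given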
Mtb hypoxia inh growth: second read-out of Mtb hypoxia inh, no call of its own (marks repeat the call); growth inhibition, %; measured here: M. tuberculosis growth (absorbance);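 0% = vehicle and 100% = reference antibiotic; read after six days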
* marks the source's active call; other numbers are inactive results; ? = inconclusive; · = not tested or not shown.

SMILES	RN4220 kill	PrP 5UTR inh	BJeLR viability	Autofluor counter	Mtb hypoxia inh	Mtb hypoxia inh growth	ugtP null kill
O=C(c1ccc2ccccc2c1)N1CCN(c2ccc(O)cc2)CC1	5.4	-12	-9	4236	8	-2	5
O=C1[C@H]2CCC=C[C@H]2[C@H](c2ccccc2Br)N1Cc1ccccc1	-5.9	-37	·	3550	5	-4	11
COc1ccc(Cc2nc3ccc(C(=O)NCc4cc(C)no4)cc3o2)cc1	-3.1	-59	0	5829	1	7	4
Cc1cccc([C@@H]2[C@@H]3C(=O)N(Cc4ccccc4)C(=O)[C@@H]3[C@]3(C)C(=O)N(c4ccc(Br)cc4)C(=O)N23)c1	·	-3	3	3347	·	·	·
CC(Oc1ccccc1F)C(=O)NCCN1CCCCC1 (configuration not stated)	6.0	-1	-7	2288	9	3	-1
Cn1cnc([N+](=O)[O-])c1SCC(O)CN1CCCCC1 (configuration not stated)	1.1	-27	1	2175	7	9	13
CCOC(=O)C1Cn2c(nc3c(c2=O)C(C)(C)Cc2ccccc2-3)S1 (configuration not stated)	1.8	-30	-12	2940	·	·	4
O=C(Nc1ccc(N2CCN(C(=O)c3ccco3)CC2)cc1)C(c1ccccc1)c1ccccc1	2.3	-4	-8	10217	1	3	14
Cc1ccc(S(=O)(=O)CCC(=O)N(C)c2c(N)n(Cc3ccccc3)c(=O)[nH]c2=O)cc1	-0.5	7	-5	4763	3	2	-7
N=c1c2c3c(sc2ncn1CCCN1CCOCC1)CCCCC3	4.1	-33	9	6249	7	19	2
CC(C)N1CCN(Cc2nc(-c3ccccc3)cs2)CC1CCO (configuration not stated)	0.6	-26	2	2367	-14	-6	4
CCn1c(SCC(=O)N(C)C)nc2cc(S(=O)(=O)N3CCCCC3)ccc21	·	-20	-7	5512	·	·	·
CCOc1cc(NC(=O)c2ccco2)c(OCC)cc1NC(=O)c1cc(OC)c(OC)c(OC)c1	15	-8	-1	9920	7	18	-2
NS(=O)(=O)c1cccc(NS(=O)(=O)c2ccc(/C=C/C(=O)O)cc2)c1	0.5	-48	-9	4388	13	-1	-7
Nc1ccccc1OCCOCCOc1ccccc1N	·	-12	2	2712	·	·	·

Some entries already given, limited to RN4220 kill and Autofluor counter:
canonical_smiles,RN4220 kill,Autofluor counter
CCn1c(SCC(=O)N(C)C)nc2cc(S(=O)(=O)N3CCCCC3)ccc21,·,5512
CCOc1cc(NC(=O)c2ccco2)c(OCC)cc1NC(=O)c1cc(OC)c(OC)c(OC)c1,15,9920
NS(=O)(=O)c1cccc(NS(=O)(=O)c2ccc(/C=C/C(=O)O)cc2)c1,0.5,4388

(further entries)
SMILES	RN4220 kill	PrP 5UTR inh	BJeLR viability	Autofluor counter	Mtb hypoxia inh	Mtb hypoxia inh growth	ugtP null kill
Cc1ccc(S(=O)(=O)N2CCC(C(=O)NCCCN3CCCC3=O)CC2)cc1C	-2.9	8	11	4192	-9	-2	-4
CC(/C=N\Nc1nnc2c(n1)[nH]c1c(C)cccc12)=C\c1ccco1	·	-24	-8	5910	·	·	·
O=S(=O)(Nc1ccc(-n2cccc2)cc1)c1ccc(Cl)c(Cl)c1	-12	-34	-8	5352	3	-1	-30
CCOC(=O)C1(Cc2ccc(Cl)cc2)CCN(C(=O)CCc2ccncc2)CC1	-0.5	6	0	2061	-3	5	-4
COc1ccc(C(O)P(=O)(OC(C)C)OC(C)C)cc1OC (configuration not stated)	4.5	-10	-4	4371	-2	9	7
CCN(c1ccc(C(=O)CN2C(=O)NC3(CCOc4ccccc43)C2=O)cc1)S(C)(=O)=O (configuration not stated)	6.6	-15	·	3921	11	9	0
CCOc1ccc(S(=O)(=O)Nc2cccnc2)cc1	-1.3	-16	-3	3428	·	·	8
CCOc1ccc(NC(=O)CC(Cc2cc(C)cc(C)c2)C(=O)O)cc1 (configuration not stated)	5.3	-7	2	3973	16	8	6
COc1ccc2nc(SCC(=O)Nc3c(C)cc(C)cc3C)[nH]c2c1	-4.3	-9	-3	4007	-4	-3	-10
O=CNc1ccc(S(=O)(=O)NCc2ccccc2)cc1	2.4	-12	-1	11723	8	-2	-3
CC(C)CN1C(=O)/C(=C(/C#N)C(=O)NC2CCCCC2)c2ccccc21	-16	-2	-8	4368	0	12	10
CC(C)C(C)(C#N)NC(=O)CSc1nc2scc(-c3ccc(F)cc3)c2c(=O)n1Cc1ccccc1 (configuration not stated)	-9.4	-107	2	2611	4	0	16
COc1ccc(N2CCN(C(=O)CCCCCn3c(=S)[nH]c4cc5c(cc4c3=O)OCO5)CC2)cc1	1.3	-20	-1	5288	7	6	0
CC(C)n1c(O)c(N=Nc2ccccn2)c2ccccc21	4.8	-21	1	2341	7	10	-7
CCCc1c(C(=O)Nc2ccc(N3CCOCC3)cc2)cnn1-c1ccccc1	-0.6	-16	4	·	7	11	10
CCCCNC(=O)COC(=O)c1ccc(SC)cc1OC	8.5	-37	-4	4285	0	10	-1
O=C(O)CN1C(=O)C(=O)N(Cc2c(F)cccc2Cl)C1=O	-2.0	-32	5	3085	2	-10	7
Cc1cccc(NC(=O)CSc2nc3ccccc3c3nc(CCc4c(C)n[nH]c4C)nn23)c1	12	3	-8	?	5	12	15
CCCCNC(=S)NNC(=O)c1csc(C(C)C)c1	0.7	-32	-2	6838	8	7	-4
c1ccc(-c2ncc3ccccn23)cc1	1.4	-17	10	5898	0	-15	3
Cc1noc(NS(=O)(=O)c2ccc(NC(=O)CSc3nnc4c(n3)[nH]c3ccccc34)cc2)c1C	4.8	-25	3	2636	4	6	6
CON=C(Cn1ncc(N2CCOCC2)c(Br)c1=O)c1ccc(Cl)cc1	3.1	·	·	·	16	15	6
CC(C)C[C@H](NC(=O)C1CCN(S(=O)(=O)c2ccccc2)CC1)C(=O)NCc1ccncc1	2.9	-13	-5	5340	-1	-2	13
c1ccc2c(c1)CCN(c1nc3ccccc3n3cnnc13)C2	22	-23	4	4292	4	5	3
CSC(=O)NC12CC3CC(CC(C)(C3)C1)C2	3.2	·	-4	7835	13	11	8
CCN1CCN(c2ccc(S(=O)(=O)N3CCOCC3)cc2NC(=O)c2ccc(Cl)s2)CC1	3.0	-18	-8	6804	8	4	7
COc1ccccc1-c1ccc(SCc2ccc(C)cc2)nn1	55	-30	-6	4241	14	14	1
COC1CCN(C(=O)CC2C(=O)NCCN2CC2CCCCC2)CC1 (configuration not stated)	0.9	-28	-6	4293	1	4	-3
Cc1ccc(OCCCC(=O)Nc2ccc(S(=O)(=O)Nc3ccccn3)cc2)cc1	-2.5	-36	2	2258	6	11	7
COc1ccc(-c2nc(CCNS(=O)(=O)c3ccc4c(c3)OCCO4)cs2)cc1	-13	-13	3	6766	-1	8	2
O=C(NCc1ccccc1)Nc1cccn(Cc2ccccc2)c1=O	-1.6	-5	2	10934	4	3	4
O=C(COC(=O)c1cccs1)NCc1ccc2c(c1)OCO2	5.8	3	-2	3889	18	-32	5
Cc1c(C(=O)NC2CC2)oc2ccccc12	-1.4	-24	·	3500	-4	-5	-6
CC(=O)N1c2c(ccc3ccccc23)C(C)CC12CCCCC2 (configuration not stated)	·	-32	4	3503	·	·	·
CC(=O)Nc1ccc(S(=O)(=O)Oc2ccc(N3C(=O)C4CCCCC4C3=O)cc2)cc1 (configuration not stated)	6.7	-20	2	19304*	5	12	2
CC1(O)C[C@]2(C)N(O)C3CCCC[C@@H]3N2O1 (some centres not stated)	·	-28	-5	3306	·	·	·
O=C(NN=Cc1ccc([N+](=O)[O-])cc1)c1cccc2cc[nH]c12	1.9	·	·	·	7	9	-6
O=C(NCc1ccco1)c1ccc(Cn2c(=O)c3ccccc3n(Cc3cccc(Cl)c3)c2=O)cc1	1.5	-14	1	4471	23	10	23
CCOC(=O)CC1C(=O)NCCN1S(=O)(=O)c1ccc(Cl)cc1 (configuration not stated)	3.0	-14	-3	3627	-1	6	0
Cc1sc(NC(=O)c2ccccc2)c(C(=O)N2CCN(C)CC2)c1C	6.0	-17	3	11661	1	0	2
Cc1cccc(CC2SC(N3CCN(c4ccccc4)CC3)=NC2=O)c1 (configuration not stated)	4.6	-12	-5	2088	9	-2	2
Cc1ccc(C(=O)OCC(=O)NCCc2ccc(S(N)(=O)=O)cc2)o1	4.2	-23	·	3772	10	7	10
CCOC(=O)Cn1c(C)nc2c(C(=O)OCC)sc(C)c2c1=O	6.6	-18	7	3561	·	·	-1
CCCCC1CNC(=S)N1CCCc1cc(OC)c(OC)c(OC)c1 (configuration not stated)	9.5	·	·	·	-6	-7	4
CC(C)(C)OC(=O)CCC(C(=O)N1CCN(C(=O)OC(C)(C)C)CC1)n1cc(C(Cc2ccc(O)cc2)NC(=O)OC(C)(C)C)nn1 (configuration not stated)	5.9	·	·	·	-1	2	0
CCOC(=O)C1CCCN(S(=O)(=O)c2ccc3c4c2CC(=O)N4CC(C)S3)C1 (configuration not stated)	7.3	6	5	5163	2	16	17
COc1cccc(OC)c1C(=O)N1CCN(Cc2ccc3c(c2)OCO3)CC1	1.9	-10	-7	4219	·	·	6
COc1ccc(C(=O)OCC(=O)Nc2ccc3c(c2)OCCO3)c(OC)c1	2.9	-23	·	3323	7	5	6
Cc1cc(OCC(=O)N[C@@H](CSCc2ccccc2)C(=O)O)c2c(C)c(C)c(=O)oc2c1	3.8	-17	-7	4035	·	·	8
CCCCOc1cccc(C(=O)Nc2ccc(NC(=O)c3ccco3)cc2)c1	2.4	-19	-2	5356	-6	-2	9
CN1C(=S)SC(/[N+]([O-])=C\c2ccc(Cl)cc2)C1(C)C (configuration not stated)	2.2	-11	-7	·	19	5	2
O=C(NN=Cc1cn[nH]c1-c1ccccc1)c1ccc([N+](=O)[O-])cc1	4.9	·	·	·	1	10	-1
COc1cccc(-c2c(-c3cc(OC)cc(OC)c3)n(C)c3ccc(-c4cnc(OC)nc4)cc23)c1	1.8	-18	·	3794	15	11	7
Cc1nccn1CCc1n[nH]c(=S)n1Cc1ccccc1	8.6	-3	-8	2481	·	·	0
Cc1cccc(NC(=O)NNC(=O)c2ccc(C)c([N+](=O)[O-])c2)c1	2.4	-14	-9	2437	0	4	-6
CCC(=NNc1ccc([N+](=O)[O-])cc1)c1ccccc1	-11	·	·	·	8	1	-8
O=C(CN1C(=O)NC2(CCCCC2)C1=O)N1CCN(S(=O)(=O)c2cccc([N+](=O)[O-])c2)CC1	0.9	-2	·	4018	-10	7	0
O=S(=O)(Nc1cc(F)ccc1F)c1cccc2nonc12	12	-18	-9	6179	-6	-6	2

Hits appear at their usual frequency; any-hit rate near 4%.
